RE007 growth inh = less growth of the S. pombe RE007 Vpr strain | S. pombe RE007 Vpr strain, BacTiter-Glo ATP luminescence, 24 h; control for the full effect not named in the record | AID 651644 | 0.21% of 360,000 active | Potency, µM (top dose mostly 92.2 µM), for the others: at the highest dose activity change, negative = less growth; active = well fitted falling curve with a large enough effect; inconclusive = small, poorly fitted or top-dose-only effect; inactive = no such curve, though single readings can be large or run the other way;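 note: % is set by controls: 0 for no effect and ±100 for the full control effect; nearly all actives have a fitted effect of over 50% in size; the assay follows cell death caused by Vpr and the record does not say whether a fall means rescue or toxicity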
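Fission yeast RE007 carrying one integrated HIV-1 vpr copy, seeded at OD 0.01 in PMG+AL medium with 23 nL pinned compound. Grown 24 h at 30 degrees; viability read by BacTiter-Glo luminescence after 5 min.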
Cruzain inh Det = cruzain (T. cruzi) inhibition with detergent; P25779; purified cruzain, Z-FR-AMC fluorescence, 0.01% Triton; Potency, µM, for the others: max response, negative = inhibition, most hits filed as inhibitors; 0.43% of 200,000 active; AID 1478; active = well fitted curve in the direction sought with a large enough effect; inconclusive = small, poorly fitted or top-dose-only effect, or another doubt; inactive = no such curve, though single readings can be large; an effect the other way counts as inactive or inconclusive;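 note: plate controls were neutral wells for no effect and buffer without enzyme for full effect; nearly all actives have a fitted effect of over 40% in size; top concentration of the series not given in the record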
Target sequence (P25779 123-467 limits assumed): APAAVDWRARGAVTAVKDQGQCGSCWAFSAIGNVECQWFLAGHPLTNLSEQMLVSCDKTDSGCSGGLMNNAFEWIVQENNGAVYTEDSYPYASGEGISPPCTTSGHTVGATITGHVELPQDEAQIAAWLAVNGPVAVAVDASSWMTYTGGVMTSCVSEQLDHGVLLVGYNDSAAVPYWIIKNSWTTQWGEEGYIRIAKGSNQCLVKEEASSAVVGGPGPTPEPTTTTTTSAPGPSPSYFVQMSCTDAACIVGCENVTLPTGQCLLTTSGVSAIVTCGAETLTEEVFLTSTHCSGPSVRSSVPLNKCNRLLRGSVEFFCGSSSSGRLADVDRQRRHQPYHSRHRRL
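Detergent-containing arm of a paired screen for aggregation-based inhibition: 0.01% Triton X-100 present. Cruzain at 1.5 nM cleaved 2 uM Z-FR-AMC at pH 5.5 with 5 mM DTT; AMC fluorescence gain over 60 s measured activity.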
Lassa entry inh = blocks Lassa virus binding to or entry into cells. Lassa virus pseudotype entry inhibition, cell reporter; control for the full effect not named in the record. Potency, µM (top dose mostly 37.9 µM), inactives show at the highest dose activity change, negative = inhibition, usual class: inhibitors. 1.2% of 300,000 active; active means well fitted inhibition curve with a large enough effect; inconclusive means small, poorly fitted or top-dose-only effect, or effect the other way; inactive means flat fitted curve, though single readings scatter; tested in HEK293 cells; note: % is set by controls: 0 for no effect and ±100 for the full control effect; nearly all actives have a fitted effect of over 50% in size; luciferase read-out
MARV entry inh = blocks Marburg virus binding to or entry into cells | Marburg virus pseudotyped entry inhibition, cell reporter; control for the full effect not named in the record; about a third of the inactives were read at about 46 µM | Potency, µM (top dose mostly 37.8 µM), for the others: at the top dose activity change, negative = inhibition, hits mostly inhibitors | 1.8% of 300,000 active; active = well fitted inhibition curve with a large enough effect; inconclusive = small, poorly fitted or top-dose-only effect, or effect the other way; inactive = flat fitted curve, though single readings scatter; tested in HEK293 cells; about a fifth of its hits are not listed in these tables; note: % is set by controls: 0 for no effect and ±100 for the full control effect; luciferase read-out
SARS PLpro yeast = inhibitors of SARS-CoV papain-like protease in yeast | S. cerevisiae expressing SARS-CoV PLpro, growth rescue; control for the full effect not named in the record | 0.19% of 330,000 active | Potency, µM (titrated, usually from 32.9 µM), inactives show at the top dose activity, positive = growth rescue; note: 0% is about no effect; nearly all actives have a fitted effect of over 55% in size; growth read by luminescence after 48 h
StopGo reporter = lowers the luciferase signal of an FMDV 2A StopGo reporter | human cells with a luciferase reporter of 2A StopGo recoding; control for the full effect not named in the record | Potency, µM (doses to about 57.9 µM), for the others: at the top dose signal change, negative = less light | 1.2% of 410,000 active; active = well fitted falling curve with a large enough effect; inconclusive = small, poorly fitted or top-dose-only effect; inactive = no such curve, though single readings can be large or run the other way; tested in HEK293T cells; note: % is set by controls: 0 for no effect and ±100 for the full control effect; nearly all actives have a fitted effect of over 45% in size; luciferase light after 4 h
NS1 inh = blocks influenza NS1 protein function. Potency, µM (series often up to 46.1 µM), without a hit: at the highest dose activity, positive = more growth. S. cerevisiae slowed by influenza A NS1, growth recovery by OD600. 0.4% of 270,000 active; note: actives are rising curves; nearly all actives have a fitted effect of over 50% in size
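OD600 was taken as the measure of yeast growth restored by compound in an NS1-expressing S. cerevisiae strain. Cells had been washed out of glucose medium and diluted 1:100 into galactose -URA medium, pH 6.0.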
Cruzain inh noDet = cruzain (T. cruzi) inhibition without detergent | Potency, µM, without a hit: max response, negative = inhibition, actives largely listed as inhibitors | purified cruzain, Z-FR-AMC fluorescence, no detergent | 2.3% of 200,000 active | P25779 | AID 1476; active = well fitted curve in the direction sought with a large enough effect; inconclusive = small, poorly fitted or top-dose-only effect, or another doubt; inactive = no such curve, though single readings can be large; an effect the other way counts as inactive or inconclusive;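 note: plate controls were enzyme without inhibitor for no effect and buffer without enzyme for full effect; nearly all actives have a fitted effect of over 40% in size; top concentration of the series not given in the record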
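Purified cruzain at 1.5 nM, pre-incubated 15 min with compound at room temperature in 100 mM sodium acetate pH 5.5, 5 mM DTT, 0.00005% Triton X-100. Reaction started with 2 uM Z-FR-AMC; AMC fluorescence increase over 60 s gives rate.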
* = called active by the depositor; ? = inconclusive; · = no result given; & = joins results of further samples; [ ] = another dose, or the depositor's remark. Unless noted, calls come from the whole dose curve; as a rule, active means well fitted rising curve with a large enough effect; inconclusive means small, poorly fitted or top-dose-only effect; inactive means no such curve, though single readings can be large or run the other way. Potency is the fitted concentration of half-maximal effect. No enrichment for hits; 4.5% or so of the library scored in one or more.

molecule | RE007 growth inh | Cruzain inh Det | Lassa entry inh | MARV entry inh | SARS PLpro yeast | StopGo reporter | NS1 inh | Cruzain inh noDet
CCOC(=O)CC1CCCCN1C(=O)c1cc(COc2cccc3cnccc23)on1 (stereo not given) | -5.5% | · | · | · | -0.8% | 2.82µM* | -21.6% | ·
Cc1ccc(-n2nc(C)c(NC(=O)CCl)c2C)cc1C | -2.3% | 0.1% | 11.2µM* | ? | 27.5% | -19.0% | 6.6% | -3.3%
O=C(Nc1ccccc1)N1CCN(c2ccccc2)CC1 | -3.4% | · | ? | 21.3% | · | 39.4%[activator] | · | ·
COc1ccccc1CC(=O)NNC(=O)c1cccs1 | 2.5% | · | 15.4%[46.1 µM] | ? | 0.8% | 24.2% | 1.9% | ·
CCC(C)NC(=O)c1ccccc1NC(=O)COc1ccc(OC)cc1 (stereo not given) | -10.5% | 1.2% | ? | -16.6% | 7.3% | ? | -0.8% | -3.1%
CC(C)OC(=O)CSc1nnc(-c2ccc(O)cc2)n1Cc1ccccc1 | 2.8% | -13.2% | -18.8% | 11.7%[46.1 µM] | -2.2% | -7.5% | -39.2% | 1.0%
CC(=O)c1cc(NC(=O)c2ccc(C)cc2)c(=O)oc1/C=C/N(C)C | -16.3% | -12.4% | ? | 9.1% | -3.3% | 0.5% | 2.0% | 4.2%
CCCN(CCC)C(=O)Cn1c(=O)n(CCCCCC(=O)Nc2ccccc2)c(=O)c2sccc21 | -7.3% | -2.9%&0.5% | -15.3%[46.1 µM] | -1.7%[46.1 µM] | -18.3% | ? | 2.6% | -0.4%&-6.2%
Cc1ccc(C(=O)N2CCC3(CC2)Oc2ccc(F)cc2C(=O)C32CC(c3cccnc3)=NO2)s1 (stereo not given) | 3.9% | · | · | · | 1.2% | 0.0% | ? | ·
Cc1nc2ccc(NC(=O)N(C)c3ccccc3)cc2s1 | -1.5% | 0.7% | ? | 27.0%[46.1 µM] | 5.2% | -2.1% | -5.1% | 2.3%
COc1ccc(F)cc1COc1nc(C)nc2ccccc12 | -9.4% | · | 11.5% | -27.0%[46.1 µM] | 4.9% | -18.2% | -27.2% | ·
COc1ccc(/C=N/NC(=O)c2ccn[nH]2)cc1COc1ccc(F)cc1 | -4.8% | -5.6% | 28.2% | ? | -15.9% | -1.2% | -1.1% | 7.2%
CCn1c(CNc2nc(-c3ccccc3)cs2)nnc1SCC(=O)NCc1ccccc1 | 11.6% | -12.8% | ? | -15.5% | 20.5% | -16.1% | 18.9% | ?
CN(C)S(=O)(=O)N1CCN(c2ccc([N+](=O)[O-])c(NC3CC3)c2)CC1 | 11.9% | · | -17.7%[46.1 µM] | 0.5%[46.1 µM] | -0.6% | ? | -14.0% | ·
CC1=C(C(=O)OCc2ccccc2)C(c2ccc(Cl)cc2)NC(=O)N1CCCC(=O)O (stereo not given) | 16.0% | · | · | · | 10.3% | -10.3% | 21.4% | ·
Cc1nc(CNC(=O)c2cc(COc3ccc(F)cc3Cl)on2)cs1 | 3.7% | · | ? | ? | -1.7% | 3.5% | -8.7% | ·
CN(C)c1ccc(/C=N/NC(=O)c2ccc3nc[nH]c3c2)cc1 | -5.8% | · | -17.0% | 10.5%[46.1 µM] | 0.4% | 39.7%[activator] | -6.2% | ·
COc1ccc(S(=O)(=O)NCC2CCCN(Cc3ccc(OC)cc3F)C2)cc1 (stereo not given) | -8.7% | · | -12.1%[46.1 µM] | ? | -4.5% | -0.5% | -4.3% | ·
CC(C)Cc1cc(C(=O)O)n[nH]1 | -5.1% | -0.5% | -5.9% | -10.7% | 11.9% | 5.0% | -0.4% | 14.1%
CCC(C)NC(=S)Nc1ccc(C(=O)OC)cc1 (stereo not given) | 12.4% | · | -24.7% | -27.7%[46.1 µM] | -0.3% | 18.6% | -1.4% | ·
CC(=O)c1cccc(NC(=O)CCS(=O)(=O)c2ccc3c(c2)n(C)c(=O)c(=O)n3C)c1 | · | 0.4% | -2.8%[46.1 µM] | -4.1%[46.1 µM] | · | -15.5% | · | -8.0%
O=C(Cc1ccc(S(=O)(=O)N2CCOCC2)s1)Nc1ccc2c(c1)CCC2 | -29.5% | -5.3% | 1.5% | 14.6%[46.1 µM] | 7.2% | 0.2% | ? | 12.8%
CCOc1ccc(C(=S)NC2CCCCC2)cc1OCC | -0.9% | · | 0.8%[46.1 µM] | -0.2%[46.1 µM] | -6.1% | 4.7% | -2.7% | ·
O=C(c1c(F)cccc1F)N1CCC(n2nnc3cc(C(F)(F)F)ccc32)CC1 | -11.7% | · | -16.5% | 18.5%[46.1 µM] | 0.0% | -11.7% | 1.3% | ·
Cc1c(C(=O)O)sc2nc(CSc3nnc(-c4ccc(F)cc4)n3C)[nH]c(=O)c12 | -13.9% | · | 12.8% | ? | 0.5% | -0.9% | 13.5% | ·
CN(CC(=O)c1c(N)n(C)c(=O)n(C)c1=O)c1ccccc1 | 10.1% | · | -2.1% | -10.6% | -0.4% | 4.3% | 7.5% | ·
COc1ccc(C2c3[nH]c4ccccc4c3C[C@H]3C(=O)N(C4CCN(Cc5ccccc5)CC4)CC(=O)N23)c(OC)c1 (stereo not given in full) | 2.5% | · | · | · | -0.5% | -12.2% | 8.7% | ·
CC(C)N(CCNC(=O)c1ccc(CS(=O)(=O)c2c(Cl)cccc2Cl)o1)Cc1ccccc1 | -1.4% | · | -28.4%[46.1 µM] | ? | -0.5% | -20.5% | -2.4% | ·
COc1cc(C(=O)NCc2ccc3c(c2)CCN3C(=O)c2ccc(Cl)cc2)cc(OC)c1OC | · | -3.2% | -15.9%[46.1 µM] | · | · | ? | · | ?
Clc1cccc(CNCCc2ccc3c(c2)OCO3)c1 | -6.5% | · | -4.2%[46.1 µM] | ? | 1.6% | 1.5% | 3.3% | ·
Cc1nn(C)cc1C1C(C#N)=C(N)N(c2cccnc2)C2=C1C(=O)CCC2 (stereo not given) | -13.8% | -3.0% | 10.1% | -6.4% | 1.5% | -5.3% | 14.2% | -16.5%
COc1ccccc1S(=O)(=O)N1CCn2cccc2C1C (stereo not given) | -1.2% | · | 14.1% | 8.4% | 3.4% | 13.0% | · | ·
O=C(NCCCn1ccnc1)c1ccccc1F | -16.8% | · | -1.8% | ? | -3.6% | -15.4% | 20.6% | ·
COc1ccc(OC)c(C2NC(=O)NC(C)=C2C(=O)Nc2ccc(F)cc2)c1 (stereo not given) | · | -1.8% | -12.1%[46.1 µM] | 6.7%[46.1 µM] | · | 4.0% | · | -7.4%
C=CCOc1ccc(C2N3CC4(C)CN2CC(CCC)(C3)C4=O)cc1 (stereo not given) | ? | -8.0% | 2.3% | 8.2% | -10.4% | -24.9% | -36.8% | 1.1%
COc1ccc2[nH]c(=O)c(CN(Cc3cccnc3)S(=O)(=O)c3ccccc3F)cc2c1 | ? | · | ? | 2.82µM* | -0.9% | -18.9% | -18.9% | ·
COc1cccc(CNC(=O)C23CN(Cc4ccccc4)CC2C(c2ccc([N+](=O)[O-])cc2)=NO3)c1 (stereo not given) | 6.7% | -5.3% | · | · | -11.3% | 23.9% | -19.3% | ?
O=c1cc(/C=C/c2cccs2)[nH]c2ccccc12 | -7.0% | 1.6% | 6.51µM* | 4.11µM* | -3.1% | ? | -7.7% | -19.7%
COc1cc(CN2CCN(S(=O)(=O)c3ccc(NC(C)=O)cc3)CC2)cc(OC)c1OC | · | 0.3% | -1.8%[46.1 µM] | · | · | -15.3% | · | -1.2%
O=C1CC(c2ccco2)Cc2nc(NCC3CCCO3)ncc21 (stereo not given) | 4.6% | -2.8% | -10.4% | 4.7% | 2.9% | -1.8% | 1.0% | 5.4%
CCC1=NC(c2ccc(OC)c(OC)c2)N(O)C1(C)C (stereo not given) | -12.4% | -2.0% | 21.8% | 19.3% | -14.4% | -1.0% | 19.1% | 14.8%
Cc1cc(C)nc(N2CCCC(C(=O)NCc3ccccc3)C2)n1 (stereo not given) | 2.9% | 0.3% | 0.5% | 3.6%[46.1 µM] | -3.3% | -13.7% | 6.0% | -6.2%
O=C(O)CC1OCC=C2CN3CCC45c6ccccc6NC4C1C2CC35 (stereo not given) | 0.7% | · | · | · | 0.0% | 0.2% | 3.0% | ·
O=C(CCc1nc2sc3c(c2c(=O)[nH]1)CCCC3)NCCc1ccc(F)cc1 | -3.9% | · | 16.7%[46.1 µM] | 17.6%[46.1 µM] | -0.5% | -13.7% | -2.1% | ·
CCCNC(=S)NCc1ccc(Cl)cc1 | -11.4% | -1.4% | 6.2% | ? | ? | 13.3% | -6.2% | -3.2%
COc1ccc(C(=S)NCS(=O)(=O)c2ccc(C)cc2)cc1 | 2.5% | -6.1% | -1.6% | ? | -22.6% | -0.4% | 0.8% | -1.2%
COc1ccc(-c2cc(C(F)(F)F)n3nc(C(=O)Nc4ccccc4SC)cc3n2)cc1OC | · | -0.8% | -3.2%[46.1 µM] | 2.8%[46.1 µM] | · | -2.1% | · | 9.2%
COc1cc2nc(SCc3ccc(F)cc3)n(Cc3cccs3)c(=N)c2cc1OC | -10.8% | 5.3% | 1.0% | -12.1% | -8.3% | ? | 29.6% | ?
C/C(=N\N=C\c1ccccc1)c1nnn(-c2nonc2N)c1C | 1.5% | 1.9% | -18.7% | 10.3% | 0.9% | 39.9%[activator] | -3.6% | ?
O=C(Nc1ccccn1)c1ccc2ccccc2c1O | ? | · | ? | 1.0% | -26.5% | 53.1%[activator] | -146.4% | ·

Screening data: PubChem, National Center for Advancing Translational Sciences (NCATS)
